# BJeLR lethal: kills HRASV12-expressing BJeLR cells; BJeLR (HRASV12) viability, CellTiter-Glo ATP luminescence, 48 h; reference of the scale not given here; inhibition, % (concentration not given with the values); actives 0.17% (n = 300,000); AID 1554;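 active means replicate mean above 50%; inconclusive means above 50% but judged a plate artefact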;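 further: 50 nL library stock added to about 25 µL; numbers are from one replicate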
# Mtb hypoxia rep: Mtb hypoxia fluorescent reporter inhibition; M. tuberculosis hypoxia-regulated fluorescent reporter, fluorescence; actives 0.1% (n = 300,000); fluorescence inhibition, % (test concentration not listed);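 active means 35 to 45% if threefold the growth effect, above 45% if 1.5-fold the growth effect; inactive means the rest, general growth blockers included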;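 further: wells of about 50 µL received 100 nL stock; 0% = vehicle wells and 100% = reference inhibitor wells; whole bacteria with a GFP reporter of the hypoxia response; strong numbers were not always called active; many hits fall short of the cut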
# RN4220 kill: S. aureus RN4220 growth inhibition | actives 0.33% (n = 330,000) | inhibition, % (test concentration not listed) | AID 1259311 | OD600, 16 h;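 active means z-score of -3 or lower and OD600 up to 0.18 on both plates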;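 further: plate controls were untreated cells for no effect and reference antibiotic for full effect; stock transfer was 100 nL into about 80 µL; one replicate is shown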
# Autofluor counter: compound fluorescence in toxin protease inhibitor counterscreen | actives 3.1% (n = 360,000) | compound autofluorescence counterscreen, microsphere flow cytometry; active compounds read high | AID 624483 | fluorescence intensity (test concentration not listed);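 active means at least 3 SD above the mean of all compounds, about 16000 in these data; inconclusive means too few beads counted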;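 further: 100 nL of 1 mM stock went into each well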
# PrP UTR inh: suppresses PrP 5' UTR mRNA reporter expression. cell-based PrP 5' UTR mRNA reporter, plate reader. AID 488862. actives 0.35% (n = 340,000). inhibition, % (no concentration beside the values);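 active means every replicate at 50% or more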;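 further: 0 = median of the neutral control wells; tested in H4 reporter cells; numbers are from one replicate; inactives centre near -14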
# Sa ugtP lethal: compounds lethal to S. aureus RN4220 ugtP deletion mutant | OD600 growth, 16 h; some inactives read as strong as hits | growth inhibition, % (test concentration not listed) | actives 0.54% (n = 330,000);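 active means z-score under -3 and OD600 up to 0.15 on both plates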;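 further: plate controls were untreated wells for no effect and antibiotic for full effect; wells of about 80 µL received 100 nL stock; the first replicate is given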
# Mtb hypoxia rep growth: recorded beside Mtb hypoxia rep, whose call it bears; growth inhibition, %; measured here: M. tuberculosis growth (absorbance);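 0% = vehicle and 100% = reference antibiotic; read after six days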
# Numbers without * were called inactive; ? = inconclusive; . = no result given; & = joins results of further samples.
SMILES,BJeLR lethal,Mtb hypoxia rep,Mtb hypoxia rep growth,RN4220 kill,Autofluor counter,PrP UTR inh,Sa ugtP lethal
O=C(O)c1cnn(-c2nc(-c3ccc(Br)cc3)cs2)c1C(F)(F)F,-11,14,8,7.1,3792,-26,6
O=C1CCCC1C(=O)Nc1ccc2ccccc2c1 (stereo not given),1,13,-1,1.3,4167,-27,-3
Cc1ccc(Oc2ncccc2/C=N/OCc2ccc(Cl)c(Cl)c2)cc1,5,.,.,.,4979,-15,.
CC=CC=CC(=O)Nc1cccc(C2=NOC3(C2)CC(C(N)=O)N(C(=O)C2CCC(=O)N2)C3)c1 (stereo not given),.,7,9,9.5,.,.,-9
CCCN1CCN(CCCNC(=S)Nc2ccc3nc(N4CCN(CC)CC4)cc(C)c3c2)CC1,3,14,2,2.8,4819,.,3
NS(=O)(=O)c1ccc(NC(=O)c2cc(-c3ccccc3O)n[nH]2)cc1,-6,7,-2,2.2,3319,0,-1
COc1ccc(N(Cc2cc3ccccc3[nH]c2=O)S(=O)(=O)c2ccc(C)cc2)cc1,1,-7,1,1.0,4217,8,5
O=C(CCn1nc(-c2ccc(Cl)cc2)ccc1=O)N1CCN(c2ccccn2)CC1,-1,-8,8,19,2197,-18,1
Cc1sc2nc(-c3cccnc3)[nH]c(=O)c2c1-c1ccccc1,-4,8,7,24,3490,-3,11
O=C(Cc1ccc(Br)cc1)NC1CCCCC1,-5,.,.,2.1,5757,-45,6
O=C(Cn1c2ccccc2c(=O)c2ccccc21)N/N=C/c1cc([N+](=O)[O-])ccc1N1CCCCC1,4,.,.,.,10952,-15,.
C=CCn1c(N)c(C(=O)OCC)sc1=S,-8,7,12,2.6,9816,-6,-5
O=C(c1ccccc1-c1nc(-c2ccccc2Cl)no1)N1CCOCC1,-2,5,5,1.8,5740,-30,1
O=P(NC1CCCCC1)(Oc1ccccc1)Oc1ccccc1,.,16,6,8.3,3924,-21,-10
COc1cccc(/C=C/C(=O)OCC(=O)NCc2ccco2)c1OC,-2,-8,-3,-0.7,2604,-10,-1
CCC(Oc1ccc(C)c(C)c1)C(=O)O (stereo not given),3,9,2,3.2,16400*,-15,3
O=C(CN1CCCCC1)Nc1scc2c1c(=O)oc1ccccc12,0,2,4,2.4,?,-53,-4
CCC(CC)C(=O)N1CC(=O)Nc2ccc(F)cc2C1c1ccccc1 (stereo not given),1,11,-1,4.7,2878,-17,4
O=C(O)c1cn(-c2ccccc2)nc1-c1cccnc1,-22,13,14,5.0,20326*,-23,-2
O=C1c2ccccc2C(=O)N1CCCN1C(=O)c2ccccc2C1=O,.,-4,5,1.7,3642,-10,1
CCN(CC)S(=O)(=O)c1cccc(C(=O)NC(C)C(c2cccs2)N2CCCC2)c1 (stereo not given),0,10,4,0.0,17341*,-14,1
Cc1ccc(Oc2cc(C)nc(-c3ccccc3O)n2)cc1,3,16,21,-10,2993,-17,31
Cn1cnc2cc(NCc3ccccc3O)ccc21,0,0,8,4.9,4292,-23,0
CCOc1cc(C=Nn2cnnc2)c(Br)cc1O,.,11,10,5.1,.,.,4

# Entries of single compounds, quoted from the list. Order of values: BJeLR lethal | Mtb hypoxia rep | Mtb hypoxia rep growth | RN4220 kill | Autofluor counter | PrP UTR inh | Sa ugtP lethal
# `O=P(NC1CCCCC1)(Oc1ccccc1)Oc1ccccc1` is entered as . | 16 | 6 | 8.3 | 3924 | -21 | -10
# `O=C(c1ccccc1-c1nc(-c2ccccc2Cl)no1)N1CCOCC1` is entered as -2 | 5 | 5 | 1.8 | 5740 | -30 | 1
# `CCOc1cc(C=Nn2cnnc2)c(Br)cc1O` is entered as . | 11 | 10 | 5.1 | . | . | 4
# `O=C(O)c1cn(-c2ccccc2)nc1-c1cccnc1` is entered as -22 | 13 | 14 | 5.0 | 20326* | -23 | -2
# `Cc1ccc(Oc2cc(C)nc(-c3ccccc3O)n2)cc1` is entered as 3 | 16 | 21 | -10 | 2993 | -17 | 31

# Just Sa ugtP lethal, for 2 of the compounds above:
SMILES	Sa ugtP lethal
O=C1c2ccccc2C(=O)N1CCCN1C(=O)c2ccccc2C1=O	1
O=P(NC1CCCCC1)(Oc1ccccc1)Oc1ccccc1	-10

# More structures:
SMILES,BJeLR lethal,Mtb hypoxia rep,Mtb hypoxia rep growth,RN4220 kill,Autofluor counter,PrP UTR inh,Sa ugtP lethal
COc1ccccc1-c1oc2ccccc2c1-c1ccc2c(c1)OCO2,.,-4,-7,-5.9,4381,-7,47
O=C(c1ccc2c3c(cccc13)CC2)C1CCCN(Cc2ccncc2)C1 (stereo not given),2,8,0,7.0,4041,.,16
O=S(=O)(/C=C/c1ccccc1)c1ccccc1,-4,11,4,4.6,9357,-6,7
OCCCc1cn(CC2CCCCC2)nn1,4,.,.,4.3,3984,-8,-3
C[n+]1ccccc1C=NO,.,-1&-2,2&0,6.8&3.1,.,.,9&3
COc1ccc(CN(Cc2ccc(C(=O)O)cc2)C(=S)Nc2cccc(C)c2)cc1OC,1,-2,6,1.1,3373,-7,6
Cc1ccc(S(=O)(=O)N2CCOCC2)cc1NS(=O)(=O)c1ccc(F)c(F)c1,.,2,0,11,3146,-6,1
CCOc1ccc(NC2=CC(=O)CC(c3ccco3)C2)cc1 (stereo not given),-1,12,13,-0.4,2651,-20,4
O=C(O)CCc1nn2c3ccccc3nc2n(-c2ccccc2)c1=O,8,14,1,5.4,11442,-25,8
COc1ccc(NC(=O)CCn2c(=O)c3cccn3c3ccccc32)c(OC)c1,1,-1,1,3.5,4939,-42,-8
Clc1ccccc1CN(Cc1ccco1)Cc1nnnn1C1CCCC1,-1,11,6,6.6,4121,-24,-18
Cc1ccc(NC(=O)Cn2cnc3c(=O)n(C)c(=O)n(C)c32)c(C)c1,7,.,.,-1.4,3713,-24,1
O=c1[nH]c2cc3c(cc2cc1CN(Cc1cccs1)Cc1nnnn1Cc1ccco1)OCCO3,-12,2,7,9.5,3579,3,2
O=C(NN=Cc1ccccc1Cl)c1ccncc1,.,.,.,11,.,.,-2
CC1=C(C(=O)Nc2ccc(C)cc2)C(c2ccc(C)o2)C2=C(CC(C)(C)CC2=O)N1 (stereo not given),-3,.,.,-2.4,4576,-22,3
CCc1ccc(CNCCNCC(C)O)cc1 (stereo not given),1,8,5,3.8,21353*,-23,10
Cc1ccc(C(=O)N(c2ccccc2)C2CC(C)N(C(=O)c3ccco3)c3ccccc32)cc1 (stereo not given),2,.,.,-12,4028,-17,10
COc1ccc(S(=O)(=O)N2c3cc(Cl)ccc3Oc3nc4ccccc4nc32)cc1,74*,.,.,-3.4,3338,71*,-5
O=C(O)C1CCCCC1C(=O)N1CCN(S(=O)(=O)c2ccc(F)cc2)CC1 (stereo not given),-11,11,-2,1.7,4901,-12,4
O=C(O)C1C2CCC(C2)C1C(=O)N1CCCC1 (stereo not given),27,-15,-3,1.2,3993,-11,2
COc1ccccc1Nc1ccc([N+](=O)[O-])cc1N,-15,-1,5,-1.1,2609,-38,-10
Cc1cccc2c1N(CCOc1ccc(C(C)(C)C)cc1)C(=O)C2=O,-25,13,9,10,2467,-14,0
Cc1nc2scc(C)n2c(=O)c1S(=O)(=O)NCC1CCN(Cc2ccc(Cl)cc2)CC1,-6,-2,-4,-0.5,6076,-6,5
CCc1ccc2c(c1)C(=O)C[C@]1(CCCC(C)C1)O2 (stereo not given in full),.,4,9,6.3,.,.,5
O=C(CNC(=O)c1ccc(Cl)cc1Cl)OCCOc1ccccc1,-4,6,-2,4.8,4243,-19,8
CCN(CC)CCNC(=O)Cc1c(C(=O)O)n(CC)c2ccccc12,5,1,-3,2.2,12795,-11,-1
Cn1c(C(C#N)C(=NS(=O)(=O)c2cccs2)c2ccccc2)nc2ccccc21 (stereo not given),.,7,2,7.2,.,.,11
O=C(CNC(=O)c1ccc(N2C(=O)c3ccccc3C2=O)cc1)OCC(=O)c1ccc(Cl)cc1,.,10,11,5.9,2127,-23,0
O=C(O)C1C2C=CC(C2)C1C(=O)NCCCn1ccnc1 (stereo not given),-1,0,3,2.2,22134*,11,0
CCc1cccc(NC(=O)CCCn2nc(C)c3c(C)n(-c4ccccc4)nc3c2=O)c1,-12,12,8,4.1,4959,-9,6
CCCSc1ccc([C@H]2N[C@@](C)(C(=O)OC)[C@H]3C(=O)N(C)C(=O)[C@@H]23)cc1,11,.,.,.,4113,2,.
COC(=O)c1ccc(-c2ccc([C@H]3[C@H]4C=CC[C@@H](C)[C@@H]4C(=O)N3Cc3ccccc3)c(F)c2)cc1,3,.,.,.,2857,-19,.
Nc1ccc(N2CCCCC2)cc1N1CCCCC1,1,.,.,30,1778,-2,-8
O=c1cc(NCc2ccccc2)nc2ccccn12,4,-13,-3,-9.5,2303,-39,-9
COc1cc(/C=C2/C(=O)NN(c3ccc(F)cc3)C2=O)cc([N+](=O)[O-])c1O,-5,10,4,3.9,6018,-8,0
Cc1nn(C)cc1CNC(=O)Nc1ccc(Cl)c(Cl)c1,-11,.,.,-0.7,4649,-58,1
CC(=NNS(=O)(=O)c1ccc(C(C)(C)C)cc1)c1ccccc1,.,-1,-2,3.9,.,.,-7
O=C(NCCCO)c1ccc(CSc2nc3ccccc3c(=O)[nH]2)cc1,16,-4,8,0.4,4560,-24,5
COc1ccc(CN2CCN(Cc3ccc(OC)c(OC)c3OC)CC2)cc1,0,9,6,1.0,3745,-14,2
Cc1ccccc1NC(=O)CCSc1nnnn1-c1ccccc1,1,-7,5,2.5,?,14,-1
Cc1c(Br)c(-c2n[nH]c(=S)n2Cc2ccco2)nn1C,-3,2,-2,-1.5,2446,-15,-1
Cc1ccc(NC(=O)c2ccc(C)c(S(=O)(=O)N3CCCCC3)c2)nc1,9,10,1,2.8,5935,-35,-3
CC(C)CC(=O)C(=O)O,.,0&8,6&9,1.5&0.1,6009&4510,-18&-5,-5&8
CCOC(=O)C(C)/C(C)=N/NC(=O)c1cc2ccccc2cc1O (stereo not given),5,.,.,.,2248,-27,.
CCCn1cnc2c(SCc3ccccc3Cl)nc(N)nc21,.,-2,10,7.5,3992,-12,2
CCOC(=O)C(NC(=O)c1ccccc1Cl)(Nc1sc2c(c1C(N)=O)CCC2)C(F)(F)F (stereo not given),-3,17,0,12,2667,-25,-4
O=C(OCC(=O)N1CCc2ccccc2C1)c1ccc(N2CCOCC2)c([N+](=O)[O-])c1,-13,12,6,9.1,10633,-14,-3
Brc1ccccc1Cn1c(-c2cncs2)nc2ccccc21,9,10,10,-2.3,4354,-9,10
Cc1onc(-c2c(Cl)cccc2Cl)c1C(=O)N=C(N)N1CCCC1,-1,8,17,4.4,4746,-12,9
CC1CCC(NC(=O)CSc2nnc(-c3cccnc3)o2)CC1 (stereo not given),.,21,4,0.0,5370,-27,1
COc1ccc(NC(=O)Nc2ccccc2SC)cc1,9,6,2,-1.1,2300,-53,3
O=C(O)c1ccccc1OCCOc1ccccc1,-4,10,9,-14,3069,8,-2
CC(=O)Nc1ccc(N2C(=O)CSC2c2ccc([N+](=O)[O-])cc2)cc1 (stereo not given),0,5,-2,1.3,3776,-16,0
CCC(C)[C@H](NC(=O)[C@@H]1Cc2ccccc2CN1C(=O)OC(C)(C)C)C(=O)NCC1CCC(C(=O)O)CC1 (stereo not given in full),17,11,6,1.2,3349,-9,5
Cc1cc(C(=O)Nc2ccc3c(c2)OCCO3)c(C)o1,2,-4,-9,-1.4,3938,-64,9
COc1ccc(/C=C(\NC(=O)c2ccco2)C(=O)NCCc2nc3ccccc3[nH]2)cc1,-5,4,-3,7.2,6519,.,1
COC(=O)c1cn(Cc2cc(OC)ccc2OC)cc(F)c1=O,0,7,3,0.9,3463,-28,8
CCC1(CC)Cc2ccccc2C2=C(C(=O)N3CCCCC3)C(=O)C(=O)N21,0,15,6,0.9,2596,-14,3
N#Cc1ccc2c(c1)nc1ccccn12,-3,11,10,1.7,2977,-15,11
CCNc1nc(NC(C)C)nc(N(n2cnnc2)S(=O)(=O)c2ccc(C)cc2)n1,5,-14,4,76,2406,4,90*
Cc1ccc(-c2nc3ccccc3o2)cc1NC(=O)c1ccc2c(c1)OCO2,-6,7,7,10.0,9287,-68,-12

# From PubChem
